From PubChem BioAssay
RGS16-Gao HTS: regulators of human RGS16-Galphao interaction; O15492+P09471; bead-based flow cytometry RGS16-Galphao binding, fluorescence; actives lie on both sides; binding response (% of control), % at 10 µM; 220,000 tested, 0.38% active; AID 1441;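 active = below 25% or above 175%, edge rows of some plates excepted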;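 also: Galphao activated by GDP with aluminum fluoride before binding; 100% = wells without compound and 0% = beads without RGS; some results beyond the cut were filed as inactive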
Target sequence (O15492 whole entry, looked up): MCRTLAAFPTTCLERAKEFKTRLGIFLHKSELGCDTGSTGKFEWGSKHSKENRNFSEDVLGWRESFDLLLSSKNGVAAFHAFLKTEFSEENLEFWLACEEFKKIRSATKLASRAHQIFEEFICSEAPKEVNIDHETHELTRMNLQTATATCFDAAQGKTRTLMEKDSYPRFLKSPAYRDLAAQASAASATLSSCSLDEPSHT
Target sequence (P09471 whole entry, looked up): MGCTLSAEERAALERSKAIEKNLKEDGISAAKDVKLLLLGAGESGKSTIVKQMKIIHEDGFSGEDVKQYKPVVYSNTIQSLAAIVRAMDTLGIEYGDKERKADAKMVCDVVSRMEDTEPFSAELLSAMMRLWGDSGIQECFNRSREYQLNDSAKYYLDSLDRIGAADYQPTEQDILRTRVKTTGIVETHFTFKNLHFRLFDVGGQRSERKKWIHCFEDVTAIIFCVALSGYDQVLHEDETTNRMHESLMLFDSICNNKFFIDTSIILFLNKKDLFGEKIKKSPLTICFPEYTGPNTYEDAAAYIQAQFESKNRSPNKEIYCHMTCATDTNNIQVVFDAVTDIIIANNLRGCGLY
HSV augment: increases HSV replication in cells. maximum fold increase. 220,000 tested, 0.005% active. HSV replication augmentation in cells, fold increase;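 active = peak rise of 1.5-fold or more in the series; tested in PC3 cells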;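 also: first round at 10 µM; read as green reporter fluorescence; hits show the peak of a series up to 25 µM; 1 = signal of infected wells without compound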
PKD1 kinase inh: PKD1 (human) kinase inhibition; inhibition, %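 (about 10 µM by stock and volumes)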; 200,000 tested, 0.056% active; AID 797; PKD1 kinase fluorescence polarization assay; Q15139;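 active = inhibition of 50% or more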;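 also: controls were vehicle for no effect and a reference inhibitor for full effect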
INS promoter inh: TRM-6 insulin promoter activity inhibition | TRM-6 cells (human fetal islet line), insulin promoter-eGFP reporter, imaging; reporter expression induced with tamoxifen | inhibition, % at 2 µM | 130,000 tested, 0.9% active | AID 1273;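 active = inhibition above the mean plus 3 SD, with well images judged a real hit on visual review, cut at about 60% in these data, passing the limit was not always enough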
GALR2 ag: activates the human galanin receptor 2; O43603; GALR2-expressing cells, agonist activation read-out; activation, %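 (tested at 5 µM)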; 140,000 tested, 0.48% active; AID 803;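 active = above mean plus 3 SD of all compounds, about 5% in these data, not always enough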;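 also: 0% = vehicle buffer wells and 100% = reference agonist at full effect; tested in CHO reporter cells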
Target sequence (O43603 whole entry, looked up): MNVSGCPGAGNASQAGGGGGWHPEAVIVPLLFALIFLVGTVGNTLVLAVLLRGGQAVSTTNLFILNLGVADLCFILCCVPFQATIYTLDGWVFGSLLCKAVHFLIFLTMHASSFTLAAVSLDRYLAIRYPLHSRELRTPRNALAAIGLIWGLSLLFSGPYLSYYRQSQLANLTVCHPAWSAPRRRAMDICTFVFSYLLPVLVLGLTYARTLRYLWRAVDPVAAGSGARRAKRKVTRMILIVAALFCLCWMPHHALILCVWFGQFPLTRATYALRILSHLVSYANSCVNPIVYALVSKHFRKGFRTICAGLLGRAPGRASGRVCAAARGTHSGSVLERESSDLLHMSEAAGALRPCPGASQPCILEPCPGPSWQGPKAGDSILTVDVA
INS promoter inh cell count: further read-out of INS promoter inh, marked with its call; normalized cell count, %; measured here: cell count, toxicity; reference of the scale not given here;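 cells exposed to compound for 48 h; stained nuclei by imaging scaled within each plate; lower means fewer cells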
HSV augment primary fold: recorded beside HSV augment, whose call it bears; fold increase; compound at 10 µM; measured here: primary screen fold increase 10 uM; tested in PC3 cells;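 GFP signal in the first replicate; 1 = infected wells without compound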
* marks the source's active call; other numbers are inactive results; i = inactive; / = no result given.

SMILES | RGS16-Gao HTS | HSV augment | HSV augment primary fold | PKD1 kinase inh | INS promoter inh | INS promoter inh cell count | GALR2 ag
COC(=O)[C@@H](NC(=O)NCc1ccc(F)cc1)C(C)C | 97.3 | i | 1.11 | -0.8 | 13.0 | 104.1 | -3.0
Cc1cccc(-c2nc(CS(=O)CC(=O)N3CCN(C)CC3)c(C)o2)c1 (stereo not drawn) | 106.6 | i | 0.67 | -10.2 | / | / | -3.3
CCOc1cc(/C=N/NC(=O)C(=O)NCC2CCCO2)ccc1OCC(=O)N1CCOCC1 (stereo not drawn) | 105.8 | i | 0.92 | / | / | / | /
CCOC(=O)C1=C(C)NC(=O)NC1c1ccc(-c2ccc(F)cc2)o1 (stereo not drawn) | 98.2 | i | 0.93 | -6.1 | / | / | /
O=C(NC(=S)Nc1ccccc1N1CCCC1)c1cccs1 | 101.9 | i | 1.03 | / | / | / | /
CN(C)CCCNc1oc(/C=C/c2ccccc2)nc1C#N | 96.5 | i | 0.91 | / | / | / | /
CC(OC(=O)C1CC(O)CN1S(=O)(=O)c1ccccc1[N+](=O)[O-])C(=O)N1CCCCC1 (stereo not drawn) | 100.2 | i | 0.9 | 0.0 | 0.0 | 148.1 | -0.1
O=C(CSc1nc2ccccc2c(=O)n1-c1ccc(F)cc1F)Nc1ccc(N2CCOCC2)cc1 | 195.1 | i | 0.95 | -0.6 | -50.0 | 66.7 | 0.6
COC(=O)c1cccc(N2C(=O)c3cccnc3C2=O)c1 | 102.1 | i | 1.03 | -3.9 | -18.2 | 103.3 | -1.9
Cc1onc(-c2ccccc2Cl)c1C(=O)N1CCc2ccccc2C1 | 93.6 | i | 0.84 | -2.2 | 13.5 | 96.2 | -1.1
Cc1ccc(S(=O)(=O)n2nc(C)c(Br)c2C)c(C)c1C | 95.0 | i | 0.94 | 3.4 | -21.2 | 89.5 | -0.3
Cc1ccc(C2OC(=O)c3ccccc32)cc1 (stereo not drawn) | 103.9 | / | / | -7.3 | -8.3 | 133.3 | 1.4
Cn1nnnc1SCC(=O)Nc1cc(S(=O)(=O)N2CCCC2)ccc1Cl | 99.9 | i | 1.07 | -2.1 | 18.2 | 81.8 | /
C=C(C)c1cccc(C(C)(C)NC(=O)Nc2ccc(Cl)cn2)c1 | 102.8 | i | 0.97 | 2.0 | / | / | -0.7
O=C(CC1NCCNC1=O)Nc1ccc(Oc2ccccc2)cc1 (stereo not drawn) | 90.9 | i | 0.98 | -2.9 | -75.3 | 47.5 | -1.3
COc1cccc(S(=O)(=O)NCc2ccc(C(=O)NCC3CCCO3)cc2)c1 (stereo not drawn) | 154.1 | i | 0.97 | -7.3 | 24.3 | 127.6 | -0.8
COc1ccc(OC)c(NC(=O)CSCc2cnn(-c3ccccc3)c2-n2cccc2)c1 | 95.4 | i | 0.91 | -4.0 | -63.6 | 42.2 | -1.2
COc1ccc(NC(=O)Nc2nnc(C(C)(C)C)s2)cc1 | 96.6 | i | 1.02 | / | / | / | /
COc1cc(C(=O)NCc2nnc(SCC(=O)N3CCOCC3)o2)cc(OC)c1OC | 113.5 | i | 0.95 | -9.8 | 0.0 | 145.1 | /
CCN1CCn2c1nc(N1CCOCC1)nc2=O | 98.5 | i | 0.77 | -0.7 | 60.0 | 133.5 | -2.7
CCOC(=O)NC1(C(F)(F)F)NC(=O)N(c2ccc(F)cc2)C1=O (stereo not drawn) | 56.8 | i | 1.03 | -3.5 | -6.7 | 73.4 | -1.9
CCOC(=O)/C=C/C(=O)Nc1cccc([N+](=O)[O-])c1 | 83.2 | i | 0.71 | 3.7 | / | / | -1.5
O=S(=O)(c1ccc(N2CCCC2c2nc3ccccc3s2)nc1)N1CCOCC1 (stereo not drawn) | 98.4 | i | 1.03 | -3.0 | / | / | 1.4
COc1ccc(C2/C=C\CN(Cc3ccc(N(C)C)cc3)CC(=O)N2Cc2ccc(F)cc2)cc1 (stereo not drawn) | 101.2 | i | 0.955 | / | / | / | /
O=C(CC1C(=O)NCCN1Cc1cccc(Oc2ccccc2)c1)NCCCn1cccn1 (stereo not drawn) | 98.4 | i | 1 | -5.0 | / | / | /
O=C(N/N=C/c1ccc(-c2ccc(S(=O)(=O)Nc3ncccn3)cc2)o1)c1cc2ccccc2cc1O | 100.8 | / | / | -7.0 | 34.5 | 76.6 | -1.8
CC1(C)CC(=O)C(CC2=C(O)CC(C)(C)CC2=O)C(=O)C1 | 61.6 | i | 0.84 | -7.0 | 47.8 | 125.7 | -2.4
CN(C(=O)Nc1ccc(Cl)c(Cl)c1)c1ccccc1C(=O)O | 102.5 | i | 0.92 | 10.2 | -26.7 | 120.3 | -1.1
COc1ccc2[nH]c(C(=O)Nc3ncc(C)cc3Br)cc2c1 | 98.6 | i | 1.05 | / | / | / | /
CCN(CC)C(=O)COc1ccc(/C=C(\C#N)S(=O)(=O)c2ccccc2)cc1OC | 99.4 | i | 1.01 | -5.9 | 10.5 | 80.6 | /
CC1=NN(c2ccccc2)C(=O)/C1=C/c1cc2cc(C)ccc2nc1N1CCCCC1 | 102.8 | i | 1.06 | -7.8 | 26.7 | 91.9 | -1.2
O=C(CN(Cc1ccco1)C(=O)Cn1nnc(-c2cccs2)n1)NCC1CCCO1 (stereo not drawn) | 106.9 | i | 0.93 | 3.2 | -93.3 | 114.0 | /
O=C(NCC1CCCO1)c1ccc2ccccc2n1 (stereo not drawn) | 77.1 | i | 0.97 | 1.5 | 6.7 | 105.4 | -2.3
CCN1CCN(CC(=O)c2c(C)n(C)c3ccc(OC)cc23)CC1 | 99.2 | i | 0.87 | -16.8 | -34.9 | 173.4 | 0.7
O=C(O)CNC(=O)c1ccc2c(c1)OCCO2 | 102.4 | i | 0.71 | -18.5 | / | / | -1.9
Cc1ccccc1-n1c(=O)cc(N2CCc3ccccc32)[nH]c1=O | 108.3 | i | 0.95 | 9.4 | / | / | -2.6
Cc1ccccc1OCC(=O)NNC(=O)c1ccc(-c2ccccc2)cc1 | 98.4 | i | 0.85 | 8.1 | 20.8 | 45.5 | -2.6
O=C(CNS(=O)(=O)c1ccc(Cl)cc1)NNC(=O)c1cccnc1 | 97.2 | i | 1 | -10.9 | / | / | /
Cc1ccc(/C=N/NC(=O)c2cc(-c3cccnc3)nc3ccccc23)cc1 | 119.4 | i | 0.65 | 3.5 | -100.0 | 26.5 | /
COc1cc(NC(=O)c2cc(-c3cccnc3)nc3ccc(C)cc23)c(OC)cc1Cl | 101.7 | / | / | -0.3 | / | / | -3.5
CCc1ccccc1Nc1ccc(C(=O)O)cc1N | 102.1 | i | 1.01 | -8.6 | -82.6 | 71.5 | -1.0
CCNC(=S)NNC(=O)c1ccc(=O)n(Cc2ccccc2)c1 | 99.6 | i | 1.08 | 5.9 | / | / | /
Cn1c(=O)c2c(nc(NCc3ccccc3)n2C)n(C)c1=O | 96.3 | i | 0.91 | -15.2 | 2.8 | 53.8 | -2.5
CN(C)C(=O)COC(=O)[C@H](Cc1ccccc1)NC(=O)c1ccco1 | 102.2 | i | 0.99 | 7.9 | 26.7 | 130.3 | -2.0
COc1ccc(CNC(=O)CCCn2c(SCC#N)nc3cc4c(cc3c2=O)OCO4)cc1 | 98.3 | i | 0.66 | -2.8 | -17.9 | 104.4 | -1.2
C/C(=N\N=C(N)N)c1cc(Cl)ccc1Cl | 103.9 | i | 0.88 | 1.9 | 11.8 | 88.8 | /
O=C(CNC(=O)c1ccccc1)NCC(=O)OCC(=O)c1ccc(F)cc1 | 40.8 | i | 1 | 1.3 | 41.7 | 99.8 | -1.2
COC(=O)c1ccc(C(NC(=O)c2cccnc2)NC(=O)c2cccnc2)cc1 | 99.4 | i | 0.8 | -5.8 | / | / | /
O=C(Cn1cc(C(=O)c2ccco2)c2ccccc21)NCc1ccco1 | 101.2 | i | 0.91 | -3.0 | -97.3 | 159.6 | -0.7
CCOC(=O)N1CCC(n2c(SCC(=O)N3CCC(C)CC3)nc3ccccc3c2=O)CC1 | 102.1 | i | 0.59 | -4.3 | 22.9 | 64.0 | -1.4
CCOc1ccc(S(=O)(=O)NCc2ccccc2)cc1C(N)=O | 70.5 | i | 1.01 | -4.8 | 19.1 | 61.9 | /
Cc1ccc(C(=O)C(O)C(c2ccc(C)cc2)N2CCCCC2)cc1 (stereo not drawn) | 100.6 | i | 1.04 | -3.4 | / | / | /
CCC(=O)Nc1c(OC(=O)CC)ccc2c(C)cc(=O)oc12 | 100.4 | i | 1.04 | -7.3 | / | / | 1.4
CC1CCN(C(=O)C2CCN(S(=O)(=O)c3cccc4nonc34)CC2)CC1 | 97.8 | i | 0.88 | -1.8 | -13.6 | 76.3 | 0.7
CCOC(=O)C1=C(C)NC(=O)C(C#N)C1c1ccco1 (stereo not drawn) | 96.9 | i | 1.06 | -6.5 | 40.0 | 168.8 | -1.7
C/C(=N\NC(=O)Cc1c(C)[nH][nH]c1=O)c1ccc2ccccc2c1 | 91.8 | i | 1.25 | -7.1 | / | / | 0.0
CCOc1ccc(NC(=O)C2CC(=O)N3CCCN=C3S2)cc1 (stereo not drawn) | 97.9 | i | 0.85 | -5.4 | 10.5 | 75.2 | -0.8
Cc1cccc(OCC(=O)NNC(=O)CSc2ncc(C#N)c(N)n2)c1 | 101.8 | i | 0.87 | -3.4 | / | / | -2.4
CSc1nsc2nc(=O)c(/C=C3\C(C)=Nc4ccccc43)c(N)n12 | 104.1 | i | 1.05 | -2.7 | / | / | /
COC(=O)CSc1cc(C)nc2ccc(OC)cc12 | 104.9 | i | 0.92 | -5.0 | -15.8 | 116.2 | -1.8
Later entries:
SMILES | RGS16-Gao HTS | HSV augment | HSV augment primary fold | PKD1 kinase inh | INS promoter inh | INS promoter inh cell count | GALR2 ag
CSc1ccc(/C=N/n2c(C)cc(C)cc2=O)cc1 | 101.7 | i | 1.15 | -9.0 | / | / | -1.1
C=CCN1C(=O)CS/C1=N/c1nccs1 | 97.5 | i | 1 | -10.5 | 21.6 | 131.0 | -0.6
CCOc1ccc(-n2c(-c3ccc(Br)cc3)c[n+]3c2CCCCC3)cc1 | 78.3 | i | 1.1 | -9.3 | 26.7 | 68.8 | /
COc1ccccc1N1CCN(S(=O)(=O)c2cc(C(F)(F)F)cc(C(F)(F)F)c2)CC1 | 102.5 | i | 0.99 | / | / | / | /
CC(=C/c1ccccc1)/C=N/N1CCN(Cc2ccc(C)cc2)CC1 | 99.5 | i | 0.94 | / | / | / | /
CC(=O)c1nn(-c2cccc(Br)c2)cc1C(=O)c1ccccc1 | 96.6 | i | 0.98 | -1.2 | 58.3 | 87.8 | -0.1
C=C(C)C(=O)N1CC2(CC(c3cccc(NC(=O)c4ccccc4)c3)=NO2)C[C@@H]1C(N)=O (stereo partly drawn) | 98.3 | i | 0.8 | -9.8 | / | / | -1.4
COc1cccc(/C=N/NC(=O)c2cc3c(OC)c(OC)ccc3[nH]2)c1OC | 104.0 | i | 0.68 | -3.0 | 0.0 | 82.4 | -0.6
COC(=O)Nc1ccc(S(=O)(=O)N(CCO)CC(F)(F)C(F)F)cc1 | 99.8 | i | 1.1 | -2.5 | 36.4 | 104.8 | -2.0
Cc1cc(O)c(NC(=O)c2ccc(Br)o2)cc1C | 104.8 | i | 0.93 | -8.4 | -145.0 | 77.9 | -2.4
CCOc1ccc(Oc2c(C)oc3cc(O)ccc3c2=O)cc1 | 98.8 | i | 1.06 | -6.9 | / | / | /
COC(=O)C1=C(C)N(C)C(=O)/C1=C\c1cccs1 | 95.9 | i | 0.87 | 0.2 | 57.1 | 154.1 | -0.6
CC(C)(SC(=S)N1CCOCC1)C(=O)O | 99.5 | i | 0.92 | -10.9 | -16.7 | 162.8 | -2.1

Laid out differently: entries from further up
structure,RGS16-Gao HTS,HSV augment,HSV augment primary fold,PKD1 kinase inh,INS promoter inh,INS promoter inh cell count,GALR2 ag
O=C(CNS(=O)(=O)c1ccc(Cl)cc1)NNC(=O)c1cccnc1,97.2,i,1,-10.9,/,/,/
Cc1ccc(/C=N/NC(=O)c2cc(-c3cccnc3)nc3ccccc23)cc1,119.4,i,0.65,3.5,-100.0,26.5,/
COc1cc(NC(=O)c2cc(-c3cccnc3)nc3ccc(C)cc23)c(OC)cc1Cl,101.7,/,/,-0.3,/,/,-3.5
CCc1ccccc1Nc1ccc(C(=O)O)cc1N,102.1,i,1.01,-8.6,-82.6,71.5,-1.0

Part of the list above, limited to HSV augment primary fold and INS promoter inh cell count:
Structure	HSV augment primary fold	INS promoter inh cell count
CC(=O)c1nn(-c2cccc(Br)c2)cc1C(=O)c1ccccc1	0.98	87.8
C=C(C)C(=O)N1CC2(CC(c3cccc(NC(=O)c4ccccc4)c3)=NO2)C[C@@H]1C(N)=O (stereo partly drawn)	0.8	/
COc1cccc(/C=N/NC(=O)c2cc3c(OC)c(OC)ccc3[nH]2)c1OC	0.68	82.4
